# Rce1 inh – yeast Ras-converting enzyme inhibition; Q03530; yeast membranes, quenched prenylated peptide cleavage fluorescence; calls only; 290,000 compounds, 0.27% hits; AID 2563;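 active = fall in fluorescence gain of 50% or more versus controls, with final raw signal at or below 3038400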;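 also: plate controls were neutral control wells for no effect and wells lacking membranes for full effect; tested at 10 µM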
# Target sequence (Q03530 whole entry, looked up): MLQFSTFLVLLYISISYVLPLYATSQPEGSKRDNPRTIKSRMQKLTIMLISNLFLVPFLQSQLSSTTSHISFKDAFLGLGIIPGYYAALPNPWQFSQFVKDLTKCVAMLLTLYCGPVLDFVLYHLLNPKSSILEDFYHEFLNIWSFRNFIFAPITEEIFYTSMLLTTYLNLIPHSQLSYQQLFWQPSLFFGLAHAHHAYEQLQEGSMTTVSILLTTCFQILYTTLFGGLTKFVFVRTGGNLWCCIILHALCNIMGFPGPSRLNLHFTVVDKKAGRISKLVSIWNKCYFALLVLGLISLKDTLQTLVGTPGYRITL
# CSC inhib – blocks cancer stem cells | inhibition, % at 7.5 µM | 300,000 compounds, 1.1% hits | cancer stem cell-like cells viability, luminescence | AID 2717;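 active = mean at 75% or more and at least half the replicates too; tested in HMLE shEcad cells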;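 also: 0% = median of negative and 100% = median of positive control wells; the first replicate is given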
# PABP polyA inh – PABP-poly(A) binding inhibition | 290,000 compounds, 1% hits | inhibition, % at 35 µM | PABP-poly(A) RNA binding, fluorescence polarization | P11940;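 active = 50% or more with normal probe brightness, or confirmed in later tests; about a fifth of its hits are not listed in these tables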;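 also: calls also rest on retests at 20 µM and on dose response follow-up; controls were probe without protein and protein plus probe with vehicle; some compounds called inactive have numbers as strong as hits; many hits fall short of the cut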
# MT1-MMP act inh – blocks activation of human MT1-MMP. HT1080 RFP-PRO-GFP cells, GFP/RFP ratio fluorescence, overnight; percent of plate control window, DMSO zero. 360,000 compounds, 0.061% hits. GFP/RFP ratio change, % at 20 µM. AID 651647;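 active = GFP/RFP ratio change of at least 30% with cell ATP level not reduced by more than half and red fluorescence within 50% of control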; also: strong numbers were not always called active
#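 Assay system: HT1080 RFP-PRO-GFP cells | Dosing: 20 µM single dose, 1% DMSO | Incubation: Cells overnight before dosing, compound overnight, 37 °C, 5% CO2 | Evaluation: GFP/RFP fluorescence ratio | Control set: DMSO-only wells and HT1080 RFP-L50D-GFP cell wells as references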
# eIF4H FP inh – inhibitors of RNA binding by human eIF4H | Q15056 | eIF4H fluorescence polarization binding assay | inhibition, % at 35 µM | 290,000 compounds, 0.94% hits | AID 2012;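 active = 50% or more with normal probe brightness, or confirmed in later tests; about a fifth of its hits are not listed in these tables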;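 also: calls also rest on retests at 20 µM and on dose response follow-up; 0% = protein and probe with vehicle and 100% = probe without protein; strong numbers were not always called active; many hits fall short of the cut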
# UUG fidelity – yeast start codon fidelity modulation | S. cerevisiae UUG-firefly luciferase reporter, luminescence/redox ratio | activity score, % at 18.7 µM | 350,000 compounds, 0.13% hits;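 active = replicate mean at a twofold rise or more, about +100% in these data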;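 also: firefly luciferase made from a UUG start codon reports start codon fidelity; reporter light over untreated wells divided by growth signal over untreated wells; some hits fall short of that in this replicate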
# HIV Env fusion – HIV envelope-mediated fusion inhibition. HeLa-JRFL Env/CEM21 cell fusion, luciferase. inhibition, % at 12.3 µM. 360,000 compounds, 1.1% hits;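 active = mean replicate inhibition score of at least 50 and every replicate individually at or above 50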;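 also: 0% = plate neutral controls and 100% = maraviroc near 300 nM; one replicate is shown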
# eIF4H FP inh retest – second read-out of eIF4H FP inh, no call of its own (marks repeat the call); inhibition, %; compound at 20 µM; confirmation average;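 mean of two retest wells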
# PABP polyA inh retest – second read-out of PABP polyA inh, no call of its own (marks repeat the call); inhibition, %; compound at 20 µM; confirmation repeats;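 mean of two retest wells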
# MT1-MMP act inh RFP – also measured in MT1-MMP act inh; calls as there; RFP signal change, %; measured here: RFP expression control read;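 0 = vehicle wells; hits needed this value within 50% of zero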
# * = called active by the depositor; i = inactive; x = no result given.
SMILES,Rce1 inh,CSC inhib,PABP polyA inh,MT1-MMP act inh,MT1-MMP act inh RFP,eIF4H FP inh,UUG fidelity,HIV Env fusion,others
COCCNC(=O)NC(=O)COC(=O)C1(c2ccc(Cl)cc2)CC1,i,-8.3,9.1,0.6,0.7,-2.9,x,-9.1,
CN1CCN(C(=O)C2CCN(S(=O)(=O)c3ccc(F)cc3)CC2)CC1,i,-15.8,5.3,-3.5,2.3,0.2,2.4,-17.1,
Cc1ccc(-c2cnc(-c3ccccc3C(=O)O)o2)cc1,i,1.9,-1.0,0.2,2.2,-0.1,-13.4,-15.0,
Cc1cc(C)cc(N(C(=O)c2csnn2)C(C(=O)NC2CCCCC2)c2ccncc2)c1 (stereo not given),i,-4.7,-0.8,-3.9,-0.1,-5.9,-15.4,46.4,
O=C(N/N=C/c1ccsc1)c1cc2ccccc2o1,i,4.2,1.9,-0.3,-0.3,-10.5,17.0,-16.9,
NC(=S)N=Nc1c(O)n(CCCl)c2ccccc12,i,-1.0,-22.0,8.6,5.7,3.9,x,-6.9,
O=C(N/N=C/c1ccccc1Cl)C1CC1,i,-1.9,2.6,1.0,3.0,1.1,-12.2,-8.9,
COc1ccc(OC)c(S(=O)(=O)Nc2c(C)n(C)n(-c3ccccc3)c2=O)c1,x,-21.7,3.6,-0.1,-2.2,-4.5,-19.2,-11.2,
COc1ccc(NC(C)=O)cc1S(=O)(=O)NCCc1ccccn1,x,x,x,0.0,2.0,x,-3.7,-5.6,
CCOC(=O)c1ccc(NC(=O)CSc2nnnn2C2CCCCC2)cc1,i,-1.0,-2.6,-1.4,-1.7,-2.1,-10.2,x,

# Of the compounds above, 4 have a halogen:
SMILES,Rce1 inh,CSC inhib,PABP polyA inh,MT1-MMP act inh,MT1-MMP act inh RFP,eIF4H FP inh,UUG fidelity,HIV Env fusion,others
COCCNC(=O)NC(=O)COC(=O)C1(c2ccc(Cl)cc2)CC1,i,-8.3,9.1,0.6,0.7,-2.9,x,-9.1,
CN1CCN(C(=O)C2CCN(S(=O)(=O)c3ccc(F)cc3)CC2)CC1,i,-15.8,5.3,-3.5,2.3,0.2,2.4,-17.1,
NC(=S)N=Nc1c(O)n(CCCl)c2ccccc12,i,-1.0,-22.0,8.6,5.7,3.9,x,-6.9,
O=C(N/N=C/c1ccccc1Cl)C1CC1,i,-1.9,2.6,1.0,3.0,1.1,-12.2,-8.9,

# Next results.
SMILES,Rce1 inh,CSC inhib,PABP polyA inh,MT1-MMP act inh,MT1-MMP act inh RFP,eIF4H FP inh,UUG fidelity,HIV Env fusion,others
CCSC1=N/C(=C\c2ccccc2)C(=O)N1,i,-5.5,8.3,0.7,2.7,2.6,-9.0,x,
Cc1ccc(S(=O)(=O)N(C)CC(=O)N2CCCc3ccccc32)cc1,i,-19.1,-7.3,-8.6,-2.4,-0.2,-7.2,27.7,
CCN(CC)Cc1c(O)ccc2c([N+](=O)[O-])c(C)n(-c3ccc(OC)cc3)c12,i,4.2,-14.8,-12.2,-11.8,1.5,11.8,x,
Cc1ccc(NC2CCCN(C(=O)CSc3ccncc3)C2)cc1C (stereo not given),i,12.8,-6.4,-7.8,-4.6,-7.9,4.0,2.4,
O=c1ccc2cc(S(=O)(=O)N3CCN(c4ccc(Cl)cc4)CC3)ccc2o1,i,x,8.2,1.6,-10.7,-1.7,-13.3,4.3,
O=C(CN1C(=O)NC2(CCCC2)C1=O)OCc1cc(=O)n2cc(Br)ccc2n1,i,-1.0,16.2,-0.6,-4.0,46.7,-11.8,-1.6,
Cc1csc2ncc(C(=O)Nc3cccc(C(F)(F)F)c3)c(=O)n12,i,2.8,3.9,4.6,2.9,14.5,-7.2,-7.3,
COCC1CCCN(C(=O)c2ccc(OC3CCN(Cc4ccccn4)CC3)cc2)C1 (stereo not given),i,13.0,-0.6,1.4,-2.0,-3.8,-3.8,-2.4,
N#CCCn1cc(C(=O)O)c(-c2ccc3ccccc3c2)n1,i,10.3,4.2,-2.6,-4.3,-3.5,-13.2,6.0,
CC1C(c2ccccc2)=NNc2nc3c(c(=O)n(C)c(=O)n3C)n21 (stereo not given),i,-22.6,0.7,x,x,-1.1,x,x,

# 4 structures already listed, arranged by SMILES length, highest first:
SMILES,Rce1 inh,CSC inhib,PABP polyA inh,MT1-MMP act inh,MT1-MMP act inh RFP,eIF4H FP inh,UUG fidelity,HIV Env fusion,others
O=C(CN1C(=O)NC2(CCCC2)C1=O)OCc1cc(=O)n2cc(Br)ccc2n1,i,-1.0,16.2,-0.6,-4.0,46.7,-11.8,-1.6,
COCC1CCCN(C(=O)c2ccc(OC3CCN(Cc4ccccn4)CC3)cc2)C1 (stereo not given),i,13.0,-0.6,1.4,-2.0,-3.8,-3.8,-2.4,
COc1ccc(NC(C)=O)cc1S(=O)(=O)NCCc1ccccn1,x,x,x,0.0,2.0,x,-3.7,-5.6,
N#CCCn1cc(C(=O)O)c(-c2ccc3ccccc3c2)n1,i,10.3,4.2,-2.6,-4.3,-3.5,-13.2,6.0,

# Next section
SMILES,Rce1 inh,CSC inhib,PABP polyA inh,MT1-MMP act inh,MT1-MMP act inh RFP,eIF4H FP inh,UUG fidelity,HIV Env fusion,others
CN1C(=O)C(O)(CC(=O)c2cccs2)c2ccccc21 (stereo not given),i,-3.7,4.5,1.6,2.1,-3.8,x,11.2,
OC1CCCN(c2c3c(nc4cc(-c5cccc(F)c5)nn24)CCCC3)C1 (stereo not given),i,-3.4,-7.3,-4.2,-3.6,3.0,x,-9.6,
CC(C)(C)NC(=O)C(c1ccc(O)cc1)N(C(=O)Cn1nnc(-c2ccc(F)cc2)n1)c1ccccc1F (stereo not given),i,-1.8,-2.0,-4.4,-8.4,1.1,x,12.6,
O=C(NCc1cccnc1)C(=O)Nc1nc(C23CC4CC(CC(C4)C2)C3)cs1,i,13.2,12.6,x,x,12.5,-13.9,22.8,
CCN(CC(=O)Nc1ccccc1OC)CC(=O)Nc1sccc1C#N,i,-2.8,-8.9,-1.4,0.6,11.1,6.8,1.3,
CCC1CCCCN1C(=O)CCCOc1ccccc1 (stereo not given),i,2.2,-3.2,0.8,0.7,7.8,x,x,
COc1cccc(CN(C)C(=O)c2ccc(S(=O)(=O)Nc3cccc(C)c3C)cc2)c1OC,x,x,x,-1.8,-8.3,x,2.9,4.2,
COc1cc(Cl)ccc1OCc1cc(C(=O)N[C@H]2CCCCNC2=O)no1,i,-4.6,5.7,3.9,3.2,-9.7,-7.1,-30.0,
COc1ccc(N(C)C(=O)c2ccc3nc(-c4ccccc4)c(-c4ccccc4)nc3c2)cc1,i,46.4,-4.0,-14.6,-16.3,1.2,-14.3,x,
CCCCNC(=O)CSc1nnc(NC(C)=O)s1,i,-9.7,-3.3,-2.4,2.6,-4.8,-9.8,x,
Cc1cccc(C)c1NC(=O)CNC(=O)c1ccc(N2CCOCC2)c([N+](=O)[O-])c1,x,x,x,5.2,6.4,x,-10.4,15.2,
O=C(OCC(=O)c1ccc(Cl)s1)c1cncc(Br)c1,x,-13.4,x,-6.6,-0.7,x,-11.5,x,
Cc1ccc(C(=O)N2CCN(S(=O)(=O)c3ccccc3[N+](=O)[O-])CC2)o1,i,x,-7.4,0.1,2.3,51.2*,x,4.1,eIF4H FP inh retest=98.3*;PABP polyA inh retest=44.9
CCC1(CC)NC(=O)N(CC(=O)N2CCN(S(=O)(=O)c3cccc(F)c3)CC2)C1=O,i,1.2,3.4,-2.0,5.4,-2.0,-5.8,x,
CC(C)Oc1ccc(CN2CCC(n3nccc3NC(=O)C3CC3)CC2)cc1,i,-6.3,-17.2,3.6,12.4,-5.4,-13.1,x,
C=CCSc1[nH]c(=O)cc(C)c1C(N)=O,i,-19.1,3.1,13.5,4.7,3.1,-4.6,-22.3,
CC(=O)Nc1ccc(OCC(O)CN2CCCCC2C)cc1 (stereo not given),i,-8.2,-3.4,1.7,7.4,1.1,x,28.0,
COc1ccc(-c2nnc(SCC(=O)N/N=C/c3ccccc3C(=O)O)n2-c2ccccc2)cc1,i,-3.2,5.1,0.0,-3.5,0.7,x,-4.4,
COc1ccc(Cl)cc1NC(=O)Nc1ccccc1C(N)=O,i,-10.2,-16.9,-6.5,-1.9,-6.0,x,6.8,
Cc1nn(Cc2ccc([N+](=O)[O-])cc2)c(=O)n1-c1cccc(F)c1,i,1.5,-7.4,-3.2,3.7,-9.1,-19.0,-21.0,
COc1ccc(CC(=O)NCc2ccccc2)cc1OC,i,4.3,-1.8,0.7,1.1,0.2,-3.8,-29.5,
O=c1c2c(nc3n1CCCCC3)sc1c(O)c(Br)ccc12,i,-8.4,10.0,0.5,3.2,-1.4,-36.1,x,
Cc1ccc(NCc2nnc(SC(C)C(=O)N/N=C/c3ccc(C)o3)n2-c2ccccc2)cc1 (stereo not given),i,-10.0,12.5,-3.2,0.1,-5.9,-2.3,x,
CCOC(=O)N1CCN(C(=O)CN(c2ccccc2OC)S(=O)(=O)c2ccc(C)cc2)CC1,i,-6.0,-3.6,0.6,-3.6,-5.2,x,-45.5,
COc1cc(C2C(C#N)=C(N)OC3=C2C(=O)CC(C)(C)C3)ccc1OC(=O)N1CCOCC1 (stereo not given),i,7.0,6.4,6.4,1.2,-12.2,-3.0,14.8,
O=C(CNC(=O)c1ccc(F)cc1)NCc1ccc(Cl)cc1,i,-0.6,-2.1,-0.8,1.8,10.0,x,2.2,
Cc1cccc(CN2C[C@]34CC[C@@H](C[C@@H]3S2(=O)=O)O4)c1,i,-2.7,66.2,-2.1,3.9,0.0,-24.1,17.3,eIF4H FP inh retest=-8.1;PABP polyA inh retest=3.3
COC(=O)C1Sc2[nH]c(=O)sc2C(c2ccc(Cl)cc2)C1C(=O)OC (stereo not given),i,-3.4,31.6,-2.0,1.2,-13.2,-11.6,4.1,
Cc1cccc(C)c1OCCCN1CCCC1,i,-10.0,12.1,2.2,4.7,2.1,-17.5,x,
Oc1c(Br)cc(Cl)cc1C=Nc1ccccc1Br,i,-1.0,6.9,-2.2,5.5,4.6,x,4.8,
COc1ccc(O)c(/C=C(\C#N)C(=O)Nc2cccnc2)c1,i,-15.6,-7.0,-1.7,3.5,5.7,x,-41.4,
COc1nc(Nc2nc3ccccc3c(=O)[nH]2)nc2ccc(C)cc12,i,125.5*,-13.9,-0.3,3.7,0.6,-5.9,103.2*,
O=C(c1cnn2c(C(F)F)cc(C3CC3)nc12)N1CCOCC1,i,-6.1,0.9,2.6,5.5,-5.3,-7.2,x,
CC(C)c1ccc(S(=O)(=O)N2CCC(C(=O)NCC3(N(C)C)CCCCC3)CC2)cc1,i,x,-2.0,0.8,-0.7,-12.8,-3.8,10.3,
CC1CC(=O)N(CC(=O)N2CCCC2)c2ccccc2S1 (stereo not given),i,10.0,3.1,-1.3,0.1,-13.1,x,x,
CCOc1ccc(Nc2nc(N3CCCCC3)nc(N3CCCCC3)n2)cc1,i,-12.7,-9.1,-6.9,-5.8,-7.1,-7.0,-22.9,
COc1cc(C(C)=O)ccc1OC(=O)C(C)N1C(=O)c2ccccc2C1=O (stereo not given),i,0.8,-5.3,0.9,1.4,-6.7,-4.0,x,
O=C1N[C@@H](Cc2c[nH]c3ccccc23)COC(=O)[C@@H](Cc2ccc(F)cc2)C/C=C\C[C@H]1CC(=O)N(CCO)Cc1ccccc1,x,32.4,x,-0.5,-11.0,x,-31.9,-21.4,
Nn1c(SCc2ccc(F)cc2)nnc1-c1ccncc1,i,2.2,7.2,5.1,3.2,-1.9,-2.9,4.4,
O=C(NCc1cccs1)C12CC3CC(CC(C3)C1)C2,i,-4.0,11.4,-0.8,2.8,-4.5,x,17.2,
O=C(O)CN1C(=O)/C(=C\C(Br)=C\c2ccccc2)SC1=S,i,27.3,32.6,1.3,13.9,11.3,-14.3,0.4,

# Only part of the results is shown; rates above refer to the full screens.
